Screens from PubChem BioAssay.
MARV entry inh – blocks Marburg virus binding to or entry into cells. Marburg virus pseudotyped entry inhibition, cell reporter; control for the full effect not named in the record; about a third of the inactives were read at about 46 µM. Potency, µM (doses to about 37.8 µM), for inactives: at the highest dose activity change, negative = inhibition, hits mostly inhibitors. 1.8% of 300,000 active; active = well fitted inhibition curve with a large enough effect; inconclusive = small, poorly fitted or top-dose-only effect, or effect the other way; inactive = flat fitted curve, though single readings scatter; tested in HEK293 cells; about a fifth of its hits are not listed in these tables; note: % is set by controls: 0 for no effect and ±100 for the full control effect; luciferase read-out
Cruzain Triton – inhibitors of Trypanosoma cruzi cruzain with detergent. AID 1478. 0.43% of 200,000 active. purified cruzain, Z-FR-AMC fluorescence, 0.01% Triton. P25779. Potency, µM, inactives show max response, negative = inhibition, actives largely listed as inhibitors;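 note: plate controls were neutral wells for no effect and buffer without enzyme for full effect; nearly all actives have a fitted effect of over 40% in size; top concentration of the series not given in the record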
Target sequence (P25779 123-467 limits assumed): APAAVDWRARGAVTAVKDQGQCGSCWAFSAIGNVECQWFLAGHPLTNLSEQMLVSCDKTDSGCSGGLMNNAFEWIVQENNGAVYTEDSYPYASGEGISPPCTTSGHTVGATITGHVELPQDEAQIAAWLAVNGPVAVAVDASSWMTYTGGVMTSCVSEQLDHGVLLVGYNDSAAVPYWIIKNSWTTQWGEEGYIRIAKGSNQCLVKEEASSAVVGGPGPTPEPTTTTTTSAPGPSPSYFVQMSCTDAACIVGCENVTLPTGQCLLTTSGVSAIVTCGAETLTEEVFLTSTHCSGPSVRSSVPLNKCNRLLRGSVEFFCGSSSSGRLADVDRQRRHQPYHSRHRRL
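Detergent-containing arm of a paired screen for aggregation-based inhibition: 0.01% Triton X-100 present. Cruzain at 1.5 nM cleaved 2 uM Z-FR-AMC at pH 5.5 with 5 mM DTT; AMC fluorescence gain over 60 s measured activity.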
2A StopGo – FMDV 2A StopGo reporter, luciferase signal; human cells with a luciferase reporter of 2A StopGo recoding; control for the full effect not named in the record; Potency, µM (doses to about 57.9 µM), without a hit: at the top dose signal change, negative = less light; 1.2% of 410,000 active; AID 1159524; active = well fitted falling curve with a large enough effect; inconclusive = small, poorly fitted or top-dose-only effect; inactive = no such curve, though single readings can be large or run the other way; tested in HEK293T cells; note: % is set by controls: 0 for no effect and ±100 for the full control effect; nearly all actives have a fitted effect of over 45% in size; luciferase light after 4 h
Cruzain noTriton – cruzain (T. cruzi) inhibition without detergent; Potency, µM, without a hit: max response, negative = inhibition, hits mostly inhibitors; purified cruzain, Z-FR-AMC fluorescence, no detergent; 2.3% of 200,000 active; AID 1476; P25779;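 note: plate controls were enzyme without inhibitor for no effect and buffer without enzyme for full effect; nearly all actives have a fitted effect of over 40% in size; top concentration of the series not given in the record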
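Purified cruzain at 1.5 nM, pre-incubated 15 min with compound at room temperature in 100 mM sodium acetate pH 5.5, 5 mM DTT, 0.00005% Triton X-100. Reaction started with 2 uM Z-FR-AMC; AMC fluorescence increase over 60 s gives rate.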
NS1 function inh – influenza NS1 inhibition | 0.4% of 270,000 active | S. cerevisiae slowed by influenza A NS1, growth recovery by OD600 | Potency, µM (highest dose often 46.1 µM), without a hit: top-dose activity, positive = more growth; active means well fitted rising curve with a large enough effect; inconclusive means small, poorly fitted or top-dose-only effect; inactive means no such curve, though single readings can be large or run the other way; note: nearly all actives have a fitted effect of over 50% in size
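In this qHTS, NS1 from influenza A is expressed in budding yeast, where it slows growth. Cells are switched from glucose to 2% galactose medium (pH 6.0, -URA), treated with compound, and growth recovery is read at OD600.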
LASV entry inh – inhibitors of Lassa virus binding or cell entry | Lassa virus pseudotype entry inhibition, cell reporter; control for the full effect not named in the record | Potency, µM (highest dose often 37.9 µM), inactives show at the highest dose activity change, negative = inhibition, usual class: inhibitors | 1.2% of 300,000 active | AID 540256; active means well fitted inhibition curve with a large enough effect; inconclusive means small, poorly fitted or top-dose-only effect, or effect the other way; inactive means flat fitted curve, though single readings scatter; tested in HEK293 cells; note: % is set by controls: 0 for no effect and ±100 for the full control effect; nearly all actives have a fitted effect of over 50% in size; luciferase read-out
SARS PLpro yeast – SARS-CoV PLP inhibition in yeast | S. cerevisiae expressing SARS-CoV PLpro, growth rescue; control for the full effect not named in the record | Potency, µM (series often up to 32.9 µM), for the others: top-dose activity, positive = growth rescue | 0.19% of 330,000 active | AID 485353; active means well fitted rising curve with a large enough effect; inconclusive means small, poorly fitted or top-dose-only effect; inactive means no such curve, though single readings can be large or run the other way; note: 0% is about no effect; nearly all actives have a fitted effect of over 55% in size; growth read by luminescence after 48 h
RE007 growth inh – less growth of the S. pombe RE007 Vpr strain; AID 651644; 0.21% of 360,000 active; S. pombe RE007 Vpr strain, BacTiter-Glo ATP luminescence, 24 h; control for the full effect not named in the record; Potency, µM (titrated, usually from 92.2 µM), inactives show at the highest dose activity change, negative = less growth; active = well fitted falling curve with a large enough effect; inconclusive = small, poorly fitted or top-dose-only effect; inactive = no such curve, though single readings can be large or run the other way;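 note: % is set by controls: 0 for no effect and ±100 for the full control effect; nearly all actives have a fitted effect of over 50% in size; the assay follows cell death caused by Vpr and the record does not say whether a fall means rescue or toxicity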
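Fission yeast RE007 carrying one integrated HIV-1 vpr copy, seeded at OD 0.01 in PMG+AL medium with 23 nL pinned compound. Grown 24 h at 30 degrees; viability read by BacTiter-Glo luminescence after 5 min.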
Active calls of the source: *; ? = inconclusive; nt = no result given; & = joins results of further samples; [ ] = remark or other dose. Unless noted, calls come from the whole dose curve; as a rule, active = well fitted curve in the direction sought with a large enough effect; inconclusive = small, poorly fitted or top-dose-only effect, or another doubt; inactive = no such curve, though single readings can be large; an effect the other way counts as inactive or inconclusive. Potency is the fitted concentration of half-maximal effect.

SMILES	MARV entry inh	Cruzain Triton	2A StopGo	Cruzain noTriton	NS1 function inh	LASV entry inh	SARS PLpro yeast	RE007 growth inh
CN(C)C(=O)NC1CCCCCCCCCCC1	-0.3%	-1.3%	-25.5%	-1.0%	-7.6%	5.3%	4.7%	27.2%
COCCCn1c(SCC(=O)N2CCc3ccccc32)nnc1-c1ccco1	-14.9%	-0.9%	-7.5%	11.9%	-6.1%	-0.2%	-0.2%	-2.2%
CCOc1c(C)cc(-c2ncccc2O)cc1C	?	-1.5%&-2.3%	9.1%&2.6%	-2.6%&-5.8%	-27.4%&-14.6%	16.3%&-13.7%	-3.0%&-15.2%	-1.1%&12.9%
CCC(=O)c1ccccc1OCCCn1cncn1	15.7%	6.4%	5.1%	6.9%	-1.7%	0.4%	0.2%	-0.6%
COc1ccccc1NC(=O)CSc1nc(O)cc(=O)n1-c1ccccc1OC	23.6%	-23.6%	-21.1%	-0.1%	10µM*	9.3%	2.2%	18.0%
CCOc1ccc(NC(=O)CSc2nnc(CNC(=O)c3ccco3)o2)cc1	-1.0%	nt	-23.8%	nt	nt	8.4%	-2.5%	23.8%
CCOc1c(CNCc2ccc(C(=O)O)cc2)cccc1OC	14.1%	nt	7.4%	nt	nt	?	2.1%	11.1%
Cc1cc(C)c2c(-c3ccc(F)cc3)c(C#N)c(=O)n(C)c2n1	8.8%[46.1 µM]	nt	-5.6%	nt	-4.4%	-12.2%	3.3%	0.9%
O=C(c1cc(-c2ccc(Br)cc2)nc2ccccc12)N1CCC1	-18.2%	nt	-20.8%	nt	nt	17.4%	-2.0%	-21.8%
Cc1cccc(N=Nc2c(N)n[nH]c2N)c1	nt	nt	15.4%	nt	17.6%	nt	0.6%	6.1%
O=C(CCCC(=O)c1ccc(F)cc1)c1ccc(F)cc1	?	nt	55.3%[activator]	nt	-6.1%	?	-0.8%	-6.4%
CCOc1ccccc1NC(=S)NCc1cccn1C	-0.7%[46.1 µM]	nt	43.6%[activator]	nt	nt	7.7%	0.9%	8.5%
Cc1csc(SCC(=O)NC(=O)c2ccccc2)n1	3.2%[46.1 µM]	nt	-3.4%	nt	nt	1.5%	-1.4%	24.5%
Cc1nc2c(o1)CCc1ccccc1C2O (stereo not given)	11.1%	4.5%	-1.1%	-0.1%	-1.1%	23.7%[14.3 µM]	1.4%	-12.2%
COC(=O)c1c(NC(=O)CSc2nc3ccccc3c(=O)n2Cc2ccco2)sc(C)c1C	4.4%	-1.9%	-2.2%	25.1µM*	4.5%	6.0%	?	46.0%
O=C(CSc1ccccn1)Nc1nc2ccccc2s1	?	-4.6%	37.4%[activator]	-1.9%	6.8%	4.9%	7.6%	-24.0%
Cc1cccc(NC(=O)c2cnc3sccn3c2=O)c1C	nt	-3.0%	nt	?	7.5%	nt	-3.0%	nt
O=C1c2cnc3ncnn3c2CC2c3ccccc3CCN12 (stereo not given)	-22.4%[46.1 µM]	nt	-20.7%	nt	nt	16.7%	0.9%	-17.2%
COc1cc(N2C(=O)CSC23C(=O)N(Cc2cccc(F)c2)c2ccccc23)cc(OC)c1OC (stereo not given)	nt	-6.2%	-21.4%	?	nt	-7.8%[46.1 µM]	nt	nt
CCOC(=O)C1=C(Cn2cnc3ccccc32)NC(=O)NC1c1ccc(OC)cc1 (stereo not given)	2.1%	-9.3%	-26.2%	-11.1%	0.9%	11.1%	5.2%	16.2%
COc1cc(NC(=O)[C@@H](NC(=O)c2ccco2)C(C)C)c(OC)cc1NC(=O)c1ccccc1	?	nt	-6.5%	nt	nt	-6.7%	0.3%	-3.2%
CCN(CC)c1ccc(-n2c(C)c(C(C)=O)c(C(C)=O)c2C)cc1	?	0.6%	?	-4.9%	-108.2%	?	-6.1%	7.7%
CCc1ccc(CNC(=O)c2cc3cc(S(=O)(=O)N4CCCCC4)ccc3n2C)cc1	nt	-1.3%	-33.2%	-21.5%	nt	?	nt	nt
Cc1nc2ccn(Cc3cccnc3)c(=O)c2cc1C(=O)Nc1ccc(OC(F)(F)F)cc1	nt	-12.5%	-13.9%	22.8%	nt	-18.8%[46.1 µM]	nt	nt
O=C(CN1C(=O)c2ccccc2S1(=O)=O)Nc1ncccn1	-27.3%	nt	78.0%[activator]	nt	nt	-3.2%	-4.5%	-5.4%

Next section
SMILES	MARV entry inh	Cruzain Triton	2A StopGo	Cruzain noTriton	NS1 function inh	LASV entry inh	SARS PLpro yeast	RE007 growth inh
CN(NC1OC(=O)c2ccccc21)c1c([N+](=O)[O-])cc(C(F)(F)F)cc1[N+](=O)[O-] (stereo not given)	2.8%	nt	-12.0%	nt	8.5%	-16.6%	-0.2%	-1.8%
CCCC[C@@H]1CNC(=S)N1CCCc1cc(OC)c(OC)c(OC)c1	nt	nt	16.5%	nt	-1.1%	nt	-2.0%	1.3%
O=C(NCCc1ccccc1)C(=O)NCC1OCCCN1S(=O)(=O)c1ccc(F)cc1 (stereo not given)	-2.0%	nt	-10.5%	nt	23.4%	-5.6%	1.0%	-1.4%
Cc1cccc(OCCSc2nncn2C)c1	-6.8%	nt	64.7%[activator]	nt	nt	-1.2%	0.9%	-16.2%
COc1ccc(N/N=C(/C#N)S(=O)(=O)C(C)(C)C)cc1	?	nt	3.9%	nt	-2.8%	0.9%	-1.1%	-2.5%
COc1ccccc1NS(=O)(=O)c1cc(NC(=O)Nc2ccc(Cl)cc2Cl)ccc1N1CCCCC1	?	-2.1%	55.3%[activator]	5.01µM*	26.5%	?	9.6%	-5.4%
CCCn1c(SCC(=O)NCCc2ccccc2)nnc1C(C)C	-2.2%[46.1 µM]	nt	-11.4%	nt	0.1%	1.5%	2.1%	1.8%
C=CCOc1c(Br)cc(CNc2ccc(NC(=O)C(C)C)c(OC)c2)cc1OC	?	-4.6%	?	2.3%	19.8%	?	-4.2%	-5.1%
COc1cccc(C(=O)c2cn(CC(=O)Nc3cccc(C(F)(F)F)c3)c3nc(C)ccc3c2=O)c1	nt	-5.6%	-20.8%	9.0%	nt	8.5%[46.1 µM]	nt	nt
CC(C)Oc1ccc(CCNC(=O)C2CCC(=O)N(C3CCCCCC3)C2)cc1 (stereo not given)	nt	nt	-20.7%	nt	13.8%	nt	4.9%	2.3%
COCCCNC(=O)COc1ccc2oc3c(c2c1)CCCC3	1.2%[46.1 µM]	nt	-18.3%	nt	-18.9%	?	-3.8%	19.0%
O=C(CSc1ccccn1)Nc1nc2c(ccc3ccccc32)s1	?	-8.6%	-4.4%	?	1.1%	?	-24.3%	-15.6%
O=C(CCN1C(=O)/C(=C/c2ccc3c(c2)OCO3)SC1=S)Nc1ccccc1	-4.5%	-5.3%	7.8%	7.94µM*	18.1%	-0.5%	-1.0%	nt
CCC(=O)Nc1ccc(C(=O)NNC(=O)c2cccc(C)c2)cc1	nt	nt	18.2%	nt	3.3%	nt	0.2%	9.6%
CCOc1ccc(Cl)cc1CSc1n[nH]c(CC)n1	-2.2%	-2.1%	-16.8%	7.6%	-81.5%	4.1%	-7.0%	0.4%
O=C(NCC1(c2ccccc2)CCCC1)C(=O)N1CCOCC1	-1.9%	0.5%	16.3%	-10.4%	6.4%	-2.2%	10.6%	7.7%
O=C(Oc1ccc(N(Cc2cccs2)C2=NS(=O)(=O)c3ccccc32)cc1)c1ccccc1	-0.4%	1.7%	-1.7%	?	4.1%	?	4.6%	-2.7%
Cc1ccc(OCC(=O)NC2CCCCCC2)cc1C	nt	nt	13.9%	nt	-36.7%	nt	-0.1%	0.8%
COc1cccc(-c2nc3c(C#N)c[nH]n3c2NC2CCC(C)CC2)c1 (stereo not given)	-14.6%[46.1 µM]	-6.2%	14.4%	?	nt	-24.3%[46.1 µM]	nt	nt
CCCCCCOC(=O)Sc1nc2ccccc2o1	0.7%	-0.1%	-13.7%	10.0%	-211.0%	10.0%	-36.1%	0.9%[3.69 µM]
N=c1sccn1CC(=O)Nc1ccc(S(=O)(=O)N2CCOCC2)cc1	-0.1%	5.9%	-2.2%	7.0%	4.3%	-5.6%	-2.7%	5.1%
O=[N+]([O-])c1ccc(NC(=S)N2CCCC2)cc1	nt	nt	77.1%[activator]	nt	-9.8%	nt	4.8%	-11.0%
Cc1cc(C)c(SCCc2ccncc2)c(C)c1	nt	nt	0.0%	nt	-40.4%	nt	28.6%	-2.0%
Cc1nn(-c2ccccc2)c2c1C(c1ccc3c(c1)OCO3)SCC(=O)N2 (stereo not given)	-25.0%	0.8%	nt	1.9%	11.5%	?	3.2%	15.0%
CCCNC(=O)CN(c1ccc(F)c(Cl)c1)S(C)(=O)=O	8.8%	4.7%	1.1%	1.6%	2.7%	-0.9%	2.0%	-2.8%

(listing goes on)
SMILES	MARV entry inh	Cruzain Triton	2A StopGo	Cruzain noTriton	NS1 function inh	LASV entry inh	SARS PLpro yeast	RE007 growth inh
COCCNC(=O)Cn1ccc2cc(S(=O)(=O)N3CCCCC3)ccc21	nt	nt	-8.6%	nt	-1.7%	nt	-5.4%	23.3%
CC(C)N1CCN(Cc2cccc([N+](=O)[O-])c2)CC1	5.9%[46.1 µM]	nt	18.9%	nt	nt	?	-1.9%	-3.7%
COc1ccccc1-c1c(C)nn2c(N3CCN(c4cccc(Cl)c4)CC3)cc(C)nc12	nt	0.0%	-20.0%	-13.1%	nt	?	nt	nt
O=C(COC(=O)/C=C/c1ccc([N+](=O)[O-])cc1)NCC1CCCCC1	27.5%	nt	-8.3%	nt	nt	4.6%	8.4%	29.8%
C=CCn1c(O)c(N=Nc2nc3ccccc3c(=O)n2-c2ccccc2)c2ccccc21	15.7%	-4.6%	-2.5%	10.4%	-3.3%	4.3%	0.7%	6.3%
O=C(COC(=O)C1C2CC3OC(=O)C1C3C2)Nc1ccc(F)cc1 (stereo not given)	?	nt	14.5%	nt	8.8%	1.7%[46.1 µM]	2.0%	-13.5%
COc1ccc(OCC(=O)NCc2ccc3c(c2)CCN3C(=O)c2ccc(F)cc2)cc1	nt	0.2%	-15.0%	14.0%	nt	?	nt	nt
O=C1CCC(C(=O)N2CCCCO2)CN1CCc1ccccc1 (stereo not given)	nt	nt	46.2%[activator]	nt	-9.7%	nt	-1.0%	-3.9%
O=C(Nc1onc2c1CCCC2)c1ccccc1	?	0.4%	-4.2%	-7.0%	nt	?	nt	nt
CCOC(=O)c1c(C)oc2ncnc(NCCc3ccccc3)c12	nt	-5.9%	?	?	nt	1.6%[46.1 µM]	nt	nt
